# FGF22 binding: shifts melting point of recombinant human FGF22; calls only at 9.99 µM; Q9HCT0; 340,000 tested, 1.5% active; recombinant FGF22 thermal shift, SYPRO orange fluorescence; percent of sucrose octasulfate shift, DMSO zero;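 active = melting point raised past a set limit in the mean and every replicate; inconclusive = no clear call; three in four hits are not shown here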
# Target sequence (Q9HCT0 whole entry, looked up): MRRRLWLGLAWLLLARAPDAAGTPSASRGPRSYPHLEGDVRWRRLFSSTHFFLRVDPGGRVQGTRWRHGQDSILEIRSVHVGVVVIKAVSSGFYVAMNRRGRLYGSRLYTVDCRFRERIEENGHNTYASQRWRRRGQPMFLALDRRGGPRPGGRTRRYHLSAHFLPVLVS
# Vif A3G: inhibitors of Vif binding to APOBEC3G peptide, primary screen, biochemical, TR-FRET, GST-Vif 1-94, biotin-A3G peptide, dose response retest (AID 1117319); TR-FRET GST-Vif / biotin-A3G peptide binding; higher % means a stronger effect; test concentration not given here; strong numbers were not always called active; inhibition, %, or IC50 in µM where a hit was titrated; 260,000 tested, 0.57% active;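 active = above the screen mean plus three standard deviations and confirmed in dose response; inconclusive = results disagree or hit not tested in dose response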;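 also: Vif residues 1-94 fused to GST binding biotinylated APOBEC3G peptide 110-148; 0% = full assay without inhibitor and 100% = GST in place of GST-Vif; retest series ran down from 100 µM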
# RanGTP-Impb inh: disruptors of Ran-importin-beta complex formation – biochemical, FRET, CFP-Ran, YFP-importin-beta, homogeneous, primary screen. cell-free CFP-Ran/YFP-importin-beta FRET ratio. inhibition, % (concentration not given with the values). 300,000 tested, 1.1% active. AID 2216;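 active = most replicates above 15%; inconclusive = exactly half above 15%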;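 also: 0% = DMSO wells and 100% = Ran loaded with GDP instead of GTP; wells of about 40 µL received 100 nL stock; the first replicate is given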
# Ecoli growth: blocks Escherichia coli growth; AID 1053175; OD600, 23 h; hits give low values; OD600 absorbance (test concentration not listed); 330,000 tested, 0.21% active;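 active = OD600 absorbance below the run mean of sample wells minus 3.6 SD, in any replicate, cut at about 0.56 in these data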;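 also: stock transfer was 300 nL into about 60 µL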
# UCH37 inh: human UCH37 deubiquitinating enzyme inhibition | purified proteasome/UCH37, Ub-AMC cleavage fluorescence | 330,000 tested, 0.33% active | inhibition, % (test concentration not listed) | AID 588478;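 active = mean of two replicates above 20%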;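 also: 0% = compound-free wells with enzyme and 100% = wells lacking proteasome; stock transfer was 100 nL into about 20 µL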
# Target sequence (Q9Y5K5 whole entry, looked up): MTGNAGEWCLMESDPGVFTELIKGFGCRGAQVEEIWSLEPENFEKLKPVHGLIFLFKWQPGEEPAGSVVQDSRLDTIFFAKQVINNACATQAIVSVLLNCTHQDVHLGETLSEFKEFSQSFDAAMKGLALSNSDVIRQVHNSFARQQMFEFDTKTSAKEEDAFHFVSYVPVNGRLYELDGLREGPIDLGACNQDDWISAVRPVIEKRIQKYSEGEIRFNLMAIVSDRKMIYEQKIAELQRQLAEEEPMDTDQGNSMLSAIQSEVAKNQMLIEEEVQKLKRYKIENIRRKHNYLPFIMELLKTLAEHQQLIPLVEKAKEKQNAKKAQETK
#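 Material: human UCH37 enzyme supplied as purified proteasome complex. Measure: % inhibition of Ub-AMC cleavage fluorescence. Medium: pH 7.4 Tris-HCl (50 mM) with ovalbumin, ATP-MgCl2, DTT. Times: 30 min preincubation with enzyme, 25 min cleavage at room temperature. Detection: AMC fluorescence intensity at 355/460 nm.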
# AF4-AF9 inh: MLL-AF4/AF9 protein interaction inhibition | inhibition, % at 10 µM | AlphaScreen, biotin-AF4 peptide binding to FLAG-AF9 | 350,000 tested, 0.47% active;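 active = every replicate reaching a set inhibition limit, whatever the replicate mean, cut at about 25% in these data; inconclusive = mean inhibition reaches that limit but some replicates miss it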;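 also: 0% = plate neutral control median and 100% = total signal loss; the record names both 10 and 1 µM as test concentration; the first replicate is given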
# Target sequence (P42568 whole entry, looked up): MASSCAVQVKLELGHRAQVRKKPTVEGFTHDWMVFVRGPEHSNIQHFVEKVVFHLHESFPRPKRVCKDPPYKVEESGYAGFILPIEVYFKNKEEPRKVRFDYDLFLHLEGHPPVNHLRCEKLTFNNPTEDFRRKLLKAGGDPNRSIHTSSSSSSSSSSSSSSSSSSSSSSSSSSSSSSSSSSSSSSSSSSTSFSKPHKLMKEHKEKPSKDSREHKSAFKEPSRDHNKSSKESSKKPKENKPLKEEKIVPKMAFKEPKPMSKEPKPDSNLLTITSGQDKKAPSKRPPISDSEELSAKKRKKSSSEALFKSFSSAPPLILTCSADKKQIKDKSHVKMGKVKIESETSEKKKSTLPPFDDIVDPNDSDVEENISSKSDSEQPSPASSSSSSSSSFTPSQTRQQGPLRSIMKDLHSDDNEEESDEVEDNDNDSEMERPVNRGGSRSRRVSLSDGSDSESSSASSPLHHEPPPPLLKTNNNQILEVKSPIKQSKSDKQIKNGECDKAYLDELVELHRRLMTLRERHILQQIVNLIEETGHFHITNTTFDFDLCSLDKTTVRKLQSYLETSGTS
# HNF4A DNA FP: change in binding of human HNF4 alpha to DNA; 360,000 tested, 0.3% active; P41235; activity change, % at 10 µM; AID 1224865; HNF4a-FITC DNA binding, fluorescence polarization, 1 h; in the data active = activity change above about 30%, passing the limit was not always enough;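 also: controls were the assay level and a saturating level of protein; the project sought stronger binding though the title names inhibitors; some compounds called inactive have numbers as strong as hits; positive values seem to mean higher polarization but the record does not say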
# * hit, by the source's call; i = inactive; ? = inconclusive; / = no result given; & = joins results of further samples. An excerpt, so the mix of outcomes need not match the whole.
Structure	FGF22 binding	Vif A3G	RanGTP-Impb inh	Ecoli growth	UCH37 inh	AF4-AF9 inh	HNF4A DNA FP
CC(=O)C1=CCC(c2ccccc2)N(S(=O)(=O)c2ccccc2C)C1 (stereo not given)	i	/	/	/	/	1.0&1.1	5.1&2.2
COc1ccc(-c2ccc(=O)n(Cc3cc(=O)n4ccccc4n3)n2)cc1	/	-4%	-2.7	0.67	-8.0	/	-0.6
CC(=O)Nc1ccc(NS(=O)(=O)c2cc(Cl)sc2Cl)cc1	i	-8%	1.7	0.67	0.9	-1.9	5.1
O=C1CCN(C(=S)NCCc2ccccc2)CC1	i	1%	4.8	0.7	2.5	-0.6	-1.3
Clc1ccc(Nc2nc3ccccc3n3nnnc23)cc1	/	-7%	6.1	0.74	-249	/	3.6
C=C(C)Cn1c(N2CCN(CC)CC2)nc2c1c(=O)[nH]c(=O)n2C	i	21%	0.1	0.73	1.7	-1.7	-2.3
COc1cccc(CN2CCN(C(=O)c3cccs3)CC2)c1OC	/	0%	-3.4	0.68	-1.5	/	-2.4
COC(=O)c1ccsc1NC(=O)CCS(=O)(=O)c1ccc(Cl)cc1	i	-10%	-2.1	0.7	-0.6	0.4	11
COC(=O)c1ccc(/C=C/c2nc3ccccc3c(=O)[nH]2)cc1	i	/	7.8	0.69	-79	6.9	1.8
Cc1csc(=Nc2ccccc2)n1C	i	-6%	8.2	0.67	4.3	2.1	-1.0
COc1cccc(CCC(=O)N2CCC(n3nccc3NC(=O)C3CCOC3)CC2)c1 (stereo not given)	i	-2%	1.8	0.67	1.6	0.1	-0.2
CC(=O)c1sc(NC(=O)c2ccc(C(C)(C)C)cc2)nc1C	/	-21%	-0.5	0.72	-14	-2.0	4.5
Cc1cccc(NC(=O)CN2CCN(C(=O)c3cnn(Cc4ccccc4)c3)CC2)c1C	i	/	/	0.67	-1.7	-7.5	1.8
O=C1OC(N2CCN(c3ccccn3)CC2)c2ccccc21 (stereo not given)	/	7%	-0.7	0.74	-14	/	-2.8
Cn1nc(C(=O)N2CCC(C(N)=O)CC2)c2c1-c1ccccc1SC2	i	/	-2.4	0.77	6.7	-4.7	2.1
CCCCCCCCn1c2c(c(=N)c3c1CCC3)CCCC2	i	5%	-1.3	0.55	26*	-2.8	8.2
Cc1n[nH]c(C)c1S(=O)(=O)N1CCCC(C(=O)O)C1 (stereo not given)	i	/	/	0.72	0.8	2.2	4.6
O=C(CN1CCN(c2ccccc2)CC1)Nc1cccc(C(F)(F)F)c1	/	1%	9.2	0.69	2.2	/	-0.8
Cc1cc(C)cc(C(N)=Nc2cccc(C#N)c2)c1	i	1%	3.5	0.67	4.2	0.1	0.2
Cc1ccc(-c2nnn(CC(=O)N(CC(=O)NC3CCCCC3)c3ccc(F)c(Cl)c3)n2)o1	/	4%	0.4	0.77	2.5	/	1.0
Cc1ccc(C)c(Cn2c3ccccc3c3cnn(CC(=O)NCCCN4CCOCC4)c(=O)c32)c1	i	0%	0.3	0.67	-1.1	4.6	-1.6
CN(C)N(C)C(=O)C(O)(c1ccccc1)c1ccccc1	i	26%	-4.7	0.66	0.7	-1.5	-0.1
CCCCOC(=O)c1cc(=O)[nH]c2ccc(C)cc12	/	-1%	/	0.67	-48	-0.9	2.2
O=C(C1=C[C@@H](c2ccc(Br)cc2)C[C@@H](OCCCCO)O1)N1CCN(Cc2ccc3c(c2)OCO3)CC1	i	/	0.8	/	30*	5.4	1.2
CCC1CCCN1Cn1cnc2c([nH]c3ccc(OC)cc32)c1=O (stereo not given)	/	?	2.4	0.67	-103	/	2.7
Cc1cccc(CC2S/C(=N/N=C/c3ccco3)NC2=O)c1 (stereo not given)	i	12%	-1.0	/	/	-2.3	0.0
CCCCn1c(CCCNC(=O)c2ccco2)nc2ccccc21	i	?	0.5	0.72	2.7	-0.5	5.7
CN(Cc1ccccc1)C(=S)NC(=O)c1ccc(-c2ccccc2)cc1	/	/	-2.8	0.73	-1.8	/	1.0
Cc1ccc(S(=O)(=O)N2CC(C(=O)O)=CC[C@H]2c2ccc(Cl)cc2)cc1	i	/	/	/	0.4	1.3	-0.8
CSc1cc(-c2ccncc2)nc(-c2ccc(Cl)cc2)c1	i	-1%	-0.5	0.67	-2.9	-1.4	0.5
OC(c1ccc(F)cc1)C(CN1CCOCC1)c1ccccc1 (stereo not given)	i	4%	5.4	0.68	4.4	-1.6	0.5
CCN(CC)C(=O)c1sc(NC(=O)c2ccc(Br)o2)c(C(=O)OC)c1C	/	70%	2.5	0.72	-17	/	1.1
COc1ccc(C(=O)C/C(=C\C(=O)c2ccc(C)cc2)c2ccccc2)cc1	/	-1%	-5.5	0.71	5.5	/	-7.1
CN1CCN(c2oc(-c3ccccc3Cl)nc2S(=O)(=O)c2ccccc2)CC1	i	-4%	-2.0	0.67	1.6	13	-5.7
CCCCc1ccc(NC(=O)C2CCCO2)cc1 (stereo not given)	/	0%	-4.8	0.67	1.6	/	2.8
CN(Cc1cnn(C)c1)C(=O)c1sc2cccc(Cl)c2c1Cl	/	6%	6.4	0.67	0.8	/	2.8
C[C@@H]1CN([C@@H](C)CO)C(=O)c2c(c3ccccc3n2C)-c2ccccc2CO[C@H]1CN(C)S(=O)(=O)c1ccc(C(F)(F)F)cc1	i	6%	/	/	/	-7.0&-0.3	-4.0
NC(=O)C1CCCCc2c1[nH]c1ccc(Cl)cc21 (stereo not given)	i	-3%	1.6	0.67	6.9	1.4	2.1
C=CCSc1nsc(NC(=O)Nc2ccc(F)cc2)n1	i	-1%	0.0	/	/	0.6	-3.6
CC(=O)c1ccc(NC(=O)CCc2ccc(C)o2)cc1	i	1%	-2.0	0.63	0.5	-6.2	1.1
CCOC(=O)c1ccc(-c2c(-c3ccccc3OC)sc3cc4c(cc23)OCO4)cc1F	i	/	/	/	-9.1	-10	2.3
O=C(NC1CCCC1)C(c1ccc(F)cc1)N(C(=O)c1csnn1)C1CC1 (stereo not given)	i	-3%	-2.0	0.7	-0.8	3.8	0.2
CC1(C(=O)O)CCC(C(=O)NNC(=O)c2ccccc2O)C1(C)C (stereo not given)	i	-1%	1.8	0.68	-19	-1.6	-2.5
COc1ccc(CNC(=O)C23CC4CC(CC(Br)(C4)C2)C3)cc1	i	/	3.0	0.68	-44	-0.8	-1.6
Cc1cc(C(=O)CN2C(=O)NC(Cc3c[nH]c4ccccc34)C2=O)c(C)n1C (stereo not given)	/	3%	0.1	0.67	0.6	/	2.0
C[C@@H]1C(=O)O[C@H](C)[C@H]1C[C@@H](O)[C@](C)(O)C1CC[C@@]2(O)C3=CC(=O)[C@@H]4C[C@@H](O)[C@@H](O)C[C@]4(C)C3CC[C@]12C (stereo not given in full)	i	/	/	/	0.9	2.2	-1.2
Cc1cccc(-c2c3c(=O)n(C)c(=O)n(C)c3cn2C(C)(C)C)c1	/	2%	5.1	0.69	4.8	/	2.2
Cc1ccc(S(=O)(=O)NC2=NCN(CCc3ccccc3)CN2)cc1	/	24%	2.4	0.73	0.5	/	-2.0
Cn1c(N)c(C(=O)COC(=O)c2cc(C3CC3)nc3ccccc23)c(=O)n(C)c1=O	i	-10%	3.2	0.68	4.5	-1.3	-0.6
CCOc1cc(C)c(Cl)cc1S(=O)(=O)N(CC)CC	/	-3%	4.9	0.78	3.0	/	-0.4
O=C(O)C1C2CCC(O2)C1C(=O)Nc1cccc(Cl)c1 (stereo not given)	i	5%	1.3	0.72	3.6	0.2	1.2
CCN(CC)CCN1C(=O)C(=O)/C(=C(/O)c2ccc(S(=O)(=O)N3CCOCC3)cc2)C1c1ccc(C(C)(C)C)cc1 (stereo not given)	/	/	0.5	0.69	9.8	/	0.5
CN1C(=O)CC(N2CCN(Cc3ccc(Cl)cc3)CC2)C1=O (stereo not given)	/	23%	1.9	0.76	0.9	/	-0.2
O=C(Nc1ccc([N+](=O)[O-])cc1)c1cc(-c2ccccn2)nc2c(Cl)cccc12	/	-85%	-1.3	0.72	0.3	-0.3	6.7
COc1cccc(C(O)c2nc3ccccc3n2C)c1 (stereo not given)	i	/	-0.8	0.73	3.2	-1.4	0.2
COCCn1c(=O)[nH]c2cc(C(=O)N3CCN(c4cc(C)ccc4C)CC3)ccc2c1=O	i	0%	0.7	0.69	6.4	0.5	-3.8

# Taken from above (three entries):
Structure	FGF22 binding	Vif A3G	RanGTP-Impb inh	Ecoli growth	UCH37 inh	AF4-AF9 inh	HNF4A DNA FP
Cn1c(N)c(C(=O)COC(=O)c2cc(C3CC3)nc3ccccc23)c(=O)n(C)c1=O	i	-10%	3.2	0.68	4.5	-1.3	-0.6
CCOc1cc(C)c(Cl)cc1S(=O)(=O)N(CC)CC	/	-3%	4.9	0.78	3.0	/	-0.4
O=C(O)C1C2CCC(O2)C1C(=O)Nc1cccc(Cl)c1 (stereo not given)	i	5%	1.3	0.72	3.6	0.2	1.2

# (next part)
Structure	FGF22 binding	Vif A3G	RanGTP-Impb inh	Ecoli growth	UCH37 inh	AF4-AF9 inh	HNF4A DNA FP
COc1ccccc1-c1c(C(F)(F)F)oc2cc(OCC(=O)Nc3cc(C)ccc3C)ccc2c1=O	/	/	?	0.73	2.4	/	/
COC(=O)NCC(C)OC(=O)Nc1cccc(Cl)c1 (stereo not given)	/	-3%	0.0	0.76	1.7	/	-1.2
C(=N\Nc1ccccn1)/c1ccc2c(c1)OCCO2	i	-1%	-0.8	/	/	10	-2.2
O=C(c1ccccn1)N1CCN(S(=O)(=O)c2ccc(F)cc2)CC1	i	5%	-0.4	0.71	-1.9	0.4	-1.3
O=C(Cc1ccccc1)c1ccc(O)cc1	i	-3%	/	0.61	3.1	1.3	-0.5
COc1ccc(OC)c(-n2c(-c3ccc(S(C)(=O)=O)cc3)cc(C=O)c2C)c1	/	?	-4.1	0.78	3.6	/	-1.3
COCCn1c(SCC(=O)c2ccc3c(c2)OCCO3)nnc1-c1ccoc1C	/	11%	3.3	0.77	2.1	/	-0.7
CCCCN(CC)CCNC(=O)c1cc2cc3ccc(Cl)cc3nc2o1	i	/	-2.1	0.68	-64	-0.8	2.6
CCCOc1ccc(-c2c(C(=O)N/N=C/c3cccs3)nnn2-c2nonc2N)cc1	/	?	-2.1	/	/	/	1.3
COc1cccc(CN(CC(=O)NCC2CCCO2)C(=O)CNS(=O)(=O)c2ccccc2)c1 (stereo not given)	i	-1%	?	0.72	1.7	2.6	0.8
CCOc1ccc(NC(=O)COC(=O)c2c(OC)cccc2OC)cc1	/	-3%	-3.6	0.7	1.2	/	3.4
O=C(CCCn1cc([N+](=O)[O-])cn1)NC1CCCCCC1	i	/	0.8	0.66	4.4	0.1	2.9
CCOC(=O)CSc1n[nH]c(=O)n1CCc1ccccc1	i	-4%	?	0.62	-0.2	0.8	7.7
O=C(c1ccccc1-c1nc(-c2ccccc2)no1)N1CCCC1	/	10%	-8.0	0.73	-1.5	/	2.0
COc1cc(/C=C(\CC(=O)O)c2nc3ccccc3s2)ccc1OCC(=O)Nc1ccccc1F	i	/	/	0.71	-43	-2.4	-1.7
COCCN(C(=O)COC(=O)CCOc1cccc(C)c1)c1c(N)n(Cc2ccccc2)c(=O)[nH]c1=O	i	/	5.1	0.68	-27	1.0	-2.1
CC1CN(C(=O)CSc2cn(CC(=O)N3CCOCC3)c3ccccc23)CC(C)O1 (stereo not given)	i	/	0.6	0.66	6.4	-1.2	1.0

# From PubChem
